Vaccinia Venus = qHTS for Stage-Specific Inhibitors of Vaccinia Orthopoxvirus: Venus Reporter Primary qHTS; Vaccinia virus Venus reporter expression, fluorescence; Potency, µM (series often up to 36.5 µM), inactives show top-dose activity change, negative = inhibition, usual class: inhibitors; 330,000 compounds, 0.46% hits; AID 720580, 2013; active means well fitted inhibition curve with a large enough effect; inconclusive means small, poorly fitted or top-dose-only effect; inactive means no such curve, though single readings can be large or run the other way; tested in A549 cells; note: nearly all actives have a fitted effect of over 30% in size; inactives centre near -10
Vaccinia mCherry = qHTS for Stage-Specific Inhibitors of Vaccinia Orthopoxvirus: mCherry Reporter Primary qHTS. Vaccinia virus mCherry reporter infection, fluorescence; about a quarter of the inactives have no number. 310,000 compounds, 0.63% hits. Potency, µM (titrated, usually from 36.5 µM), for inactives: at the top dose activity change, negative = inhibition, usual class: inhibitors. AID 720579, 2013; active = well fitted inhibition curve with a large enough effect; inconclusive = small, poorly fitted or top-dose-only effect; inactive = no such curve, though single readings can be large or run the other way; tested in A549 cells; note: nearly all actives have a fitted effect of over 35% in size; inactives centre near -10
The depositor's hits bear a star; i = inactive; u = inconclusive; x = not tested or not shown; & = joins results of further samples; [ ] = dose if it differs, or a comment. % is set by controls: 0 for no effect and ±100 for the full control effect; potency is the fitted concentration of half-maximal effect.

SMILES | Vaccinia Venus | Vaccinia mCherry
CCOc1ccc(CCNC(=O)COC(=O)c2cc(OC)cc(OC)c2)cc1OCC | -9% | -22%
O=S(=O)(c1ccccc1)c1nnn2c1nc(NCc1ccc(Cl)cc1)c1sccc12 | -21% | -17%
COc1ccc(N(C)S(=O)(=O)c2cccc(C(=O)NCC3CCCO3)c2)cc1 (configuration not stated) | -1% | -4%
Cc1c(C(=O)Nc2nc3ccccc3[nH]2)oc2ccc(Br)cc12 | -9% | -13%
COc1cc2sc3ccc(C#Cc4ccc(N)cc4)cc3c(=O)c2cc1OC | -28% | -1%
N#C/C(=C\c1cccc(Oc2ccc(C(F)(F)F)cc2[N+](=O)[O-])c1)c1nc2ccccc2[nH]1 | -1% | x
CCCCNC(=O)C1CC(=O)N(CCC(C)C)C1 (configuration not stated) | -5% | x
CCCC(=O)N(c1ccc(OC)cc1)C1C=CS(=O)(=O)C1 (configuration not stated) | -1% | -11%
CCOC(=O)c1sc(NS(=O)(=O)c2ccccc2)nc1C | -6% | i
CCOC(=O)C(C)n1cnc2c(cnn2-c2ccc(Cl)cc2)c1=O (configuration not stated) | -14% | i
Cc1ccc(C)c(NCC(O)c2ccccc2)c1 (configuration not stated) | -6% | -3%
CCC(C)[C@H]1CNC(=O)C(=O)N1CC(C)(C)C (some centres not stated) | -2% | -8%
CC(C)c1ccc(NC(=O)Nc2nc(C(N)CCc3ccccc3)cs2)cc1 (configuration not stated) | u | u
Nc1ncnc2c1ncn2[C@@H]1O[C@H](CNCc2cccn2-c2nccs2)[C@@H](O)[C@H]1O | 3% | i
O=C(CSC1=NS(=O)(=O)c2cc(Cl)ccc2N1)Nc1ccccc1C(F)(F)F | -5% | -8%
CCc1nn(CC(=O)Nc2cccc(C(C)=O)c2)c(=O)c2cc3sccc3n12 | -7% | -3%
Cc1ccc(NC(=O)CNc2ccccc2N2CCCC2=O)cc1S(=O)(=O)N1CCOCC1 | -14% | -7%
COC(=O)C(CCC(C(=O)OC)N1C(=O)c2ccccc2C1=O)N1C(=O)c2ccccc2C1=O (configuration not stated) | -6% | i
CCN(CC)C(=O)c1cccc(-c2csc(C(O)c3ccc(F)cc3)n2)c1 (configuration not stated) | -10% | i
COc1ccc(-c2cc(C(=O)Oc3ccc(Br)cc3)c3ccccc3n2)cc1 | -7% | -11%

2 consecutive entries from above, for reference:
SMILES | Vaccinia Venus | Vaccinia mCherry
CCc1nn(CC(=O)Nc2cccc(C(C)=O)c2)c(=O)c2cc3sccc3n12 | -7% | -3%
Cc1ccc(NC(=O)CNc2ccccc2N2CCCC2=O)cc1S(=O)(=O)N1CCOCC1 | -14% | -7%

The listing continues:
SMILES | Vaccinia Venus | Vaccinia mCherry
CCOc1ccc(S(=O)(=O)N2CCCCC2)cc1NC(=O)CCNC(=O)c1ccco1 | -3% | i
COc1ccccc1C1=NOC(Cn2c(=O)c3c(ncn3C)n(C)c2=O)C1 (configuration not stated) | -14% | x
CC1(C)C(=O)CCC2(C)C1=CCC1C2C(=O)CC2(C)C1CCC2(O)C(=O)CO (configuration not stated) | -7% | -15%
CS(=O)(=O)c1ccc2nc(NC(=O)c3ccc(Cl)cc3)sc2c1 | -15% | -19%
Cc1cccc(Cn2cnc3ccccc32)c1 | -6% | -8%
O=C(/C=C/c1ccccn1)c1cc(Br)ccc1O | -4% | i
CCc1ccc(NC(=O)c2cnn(-c3c(C)cccc3C)c2C2CCN(C(=O)OC(C)(C)C)CC2)cc1 | -18% | 7%
COCCCn1c(=O)c2sccc2n(Cc2ccccc2)c1=O | -4% | -11%
COc1ccc(CCNC(=O)N2c3ccccc3Sc3ccccc32)cc1 | u | u
CC(=O)c1ccc(NC(=O)c2cnsn2)cc1 | -13% | -15%
Cc1cccc(NC(=O)c2ccc3c(c2)OCCO3)n1 | -15% | -7%
COc1ccc(C2CC(=O)N3CN(c4ccc(C)c(Cl)c4)CSC3=C2C#N)cc1 (configuration not stated) | 1% | 50%[activator]
O=C(Nc1nc2c(F)cc(F)cc2s1)c1ccc([N+](=O)[O-])o1 | 10µM* | 13µM*
Cc1cccc(C)c1NC(=O)CSc1cc(C(=O)c2nccn2C)c2ccccc2n1 | -15% | i
CCC1CCCCN1S(=O)(=O)c1ccc(NC(=O)C2CC(=O)N(C(C)(C)C)C2)cc1 (configuration not stated) | -11% | i
CCN(C(=O)c1cc2c(=O)oc3ccccc3c2s1)c1cccc(C(F)(F)F)c1 | -25% | -10%
Nc1[nH]c2cc([N+](=O)[O-])ccc2c1-c1ccccn1 | 56%[activator] | u
COc1ccc(-c2csc(C(C)(O)c3cccc(OC)c3)n2)cc1 (configuration not stated) | -28% | u
CCOc1ccccc1CNCc1c(C(=O)O)n(Cc2ccccc2)c2cc(OC)ccc12 | 8% | 7%
O=C(Nc1ccccc1)/C(=C1\CCCN1)[N+](=O)[O-] | -8% | -15%
CCC(C)(C)NC(=O)COc1ccc(OCc2ccccc2)cc1 | 6% | 1%
CCCCCC1CCNCC1 | -12% | i
CC(=O)Nc1cc(-c2ccc(N(C)C)cc2)cn2c(-c3ccc(F)c(Cl)c3)cnc12 | 18% | -8%
[O-][n+]1c2ccccc2c2n1CCN=C2c1ccc(Cl)cc1 | -11% | u
CCN1C(=O)C(CC(=O)Nc2ccc(F)cc2)N(Cc2ccc3c(c2)OCO3)C1=S (configuration not stated) | -15% | -7%
Cc1[nH]c2ccccc2c(=O)c1SC(F)(F)C(F)C(F)(F)F (configuration not stated) | -20% | x
O=Cc1cc2c3c(c1)CCCN3CCC2 | -8% | -15%
COCCN(C(C)=O)c1nnc(-c2ccccn2)s1 | -10% | -19%
COC(=O)C[C@H]1c2cc(C(F)(F)F)ccc2S(=O)(=O)N1C(C)C | -5% | i
Cc1cc(OCC(=O)NC(C)c2ccccc2)ccc1[N+](=O)[O-] (configuration not stated) | -21% | u
CCn1c(SCc2nc3sc(C(=O)O)c(C)c3c(=O)[nH]2)nc2ccccc21 | -6% | x
COc1cccc2c1OC1(C)CC2NC(=O)N1c1cccc(C(=O)N2CCN(c3ccccc3)CC2)c1 (configuration not stated) | -8% | -13%
CCc1cccc(-n2c(SCC(=O)c3c(N)n(C4CC4)c(=O)[nH]c3=O)nnc2N2CCOCC2)c1 | -4% | -8%
COc1ccc2c(c1)c(=O)oc1cc(OCC(=O)NC3CC3)ccc12 | -18% | x
Cc1cc(O)c(C(C)C)cc1NC(=O)Nc1cccc2ccccc12 | -13% | u
O=C(CN1CCN(S(=O)(=O)c2ccc(Cl)s2)CC1)N1CCOCC1 | 4% | -9%
Cc1ccccc1Nc1nc(N)nc(COC(=O)[C@@H](NC(=O)c2ccco2)C(C)C)n1 | 1% | -22%
CCOc1cc(CNC(=O)CN2CCSc3ccccc32)cc(OCC)c1OCC | 9% | 1%
O=C(CCN1C(=O)C2C3CC(C(Br)C3Br)C2C1=O)OCC(=O)c1ccccc1 (configuration not stated) | -2% | i
COc1ccc(Nc2nc(N)nc(CN3CCOCC3)n2)cc1 | -13% | i
CC12CCCCC1=CC(=O)CC2 (configuration not stated) | 0% | -7%
Cc1ccc(Cl)cc1N1CCN(C(=O)Cn2cnc3onc(-c4ccc(F)cc4)c3c2=O)CC1 | 5% | 1%
O=Cc1cc(OCc2ccccc2)ccc1[B-](F)(F)F | -26% | u
Cc1cc(=O)c(C(=O)O)c(C)n1-c1ccccc1 | -10% | -7%
CNc1ncnc2c1ncn2[C@H]1CN(Cc2ccncc2)C[C@@H](CO)O1 | 3% | 12%
COc1ccccc1NS(=O)(=O)c1cc(NC(=O)Nc2cccc(C)c2)ccc1N1CCCCC1 | -17% | -9%
Cc1cc(Cl)ccc1Oc1ccccc1C(=O)CC#N | -16% | -13%
O=C(NC1CCCCC1)C(c1ccc(O)c(O)c1)N(C(=O)Cn1nnc2ccccc21)c1cccc(O)c1 (configuration not stated) | -4% | 5%
CS(=O)(=O)n1nc(-c2cccnc2)nc1NCc1ccccc1 | u | u
COc1ccccc1C1=NOC(CN2C(=O)c3ccccc3S2(=O)=O)C1 (configuration not stated) | -17% | -18%
c1ccc2c(C3=NNC(=NC4CC4)SC3)c[nH]c2c1 | -14% | -9%
CCOc1ccccc1C1CC(c2cccc(NS(C)(=O)=O)c2)=NN1C(=O)c1ccccc1 (configuration not stated) | -17% | i
CCn1ccc2cc(S(=O)(=O)N3CCCN(C(=O)Nc4ccccc4C(F)(F)F)CC3)ccc21 | 3% | -11%
CN(c1ccc(OCC(=O)OCC(=O)Nc2c(F)c(F)c(F)c(F)c2F)cc1)S(=O)(=O)c1ccc(F)cc1 | -10% | -12%
Cc1ccc(OCCN2CCN(C(=O)CCC(=O)Nc3nnc(C(C)C)s3)CC2)cc1 | u | x
COC(=O)c1c(C)[nH]c(C(=O)C(C)OC(=O)C2=NNC(=O)CC2)c1C (configuration not stated) | -5% | 12%
CCCCc1c(-c2ccccc2OC)ncn1CCc1ccc(OC)cc1 | -14% | -23%
COc1ccc(NC(=O)CN2C(=O)NC(C)(C3CC3)C2=O)cc1S(=O)(=O)N1CCCCC1 (configuration not stated) | -9% | -14%
COc1ccc(CC(=O)c2ccc(O)cc2O)cc1 | -16%&0% | -7%&-7%
COC(=O)c1ccccc1N=NNc1ccc([N+](=O)[O-])cc1 | -9% | -8%

Carrying on.
SMILES | Vaccinia Venus | Vaccinia mCherry
COc1ccccc1N1CCN(C(=O)c2ccc3nc[nH]c3c2)CC1 | 2% | -22%
C=CCS/C(N)=N\N=C\c1cc(Br)cc([N+](=O)[O-])c1O | 0% | 16%
FC(F)(F)c1ccc2c(c1)NP(=S)(N1CCOCC1)c1nccn1-2 (configuration not stated) | -14% | -1%
Cc1ccc(NC2=CC(=O)CC(c3ccc(Cl)cc3)C2)cc1 (configuration not stated) | -25% | -18%
CCOc1ccc(N(CC(=O)N/N=C/c2cc(Br)c(C)o2)S(C)(=O)=O)cc1 | -8% | -14%
O=S(=O)(Nc1ccc(Br)cc1)c1cccc2cccnc12 | -17% | u
CC(C)CCN1C(Nc2ccccc2)=NC[C@@H]1CC(C)C | -6% | i
Cc1ccc(S(=O)(=O)c2cn(C)c3cc(N4CCOCC4)c(F)cc3c2=O)c(C)c1 | -14% | -10%
CN1CCN(c2ccc(S(=O)(=O)N3CCCCC3)cc2NC(=O)COc2ccc(F)cc2)CC1 | -15% | -5%
O=C(Nc1ccc2oc(-c3ccc4ccccc4c3)nc2c1)c1cccc(Cl)c1Cl | -9% | -16%
[O-]/C(=C(\C(=S)NCCN1CCOCC1)[n+]1ccccc1)c1ccc(Cl)s1 | -7% | i
OC1c2c(F)cccc2N=C2CCCCCN21 (configuration not stated) | -4% | 7%
CC(C(=O)N1CCOCC1)N1C(=O)c2ccccc2C1=O (configuration not stated) | -12% | x
COc1cc(NC(=O)C/C(C)=N/NC(=O)C(OC)c2ccccc2)c(OC)cc1Cl (configuration not stated) | -17% | i
COc1ccc2c(c1O)[C@]13CCN(C)[C@H](C2)[C@@H]1CCC(=O)C3 | -2% | u
CSc1ccc(Cl)c(C(=O)OCC(=O)NCc2ccco2)c1 | -11% | -21%
CCCOc1ccccc1/C=N/Nc1ccnc(=O)[nH]1 | -16% | -27%
CC1=C(C(=O)OC2CCCCCC2)C(c2ccc(C)o2)C2=C(CCCC2=O)N1 (configuration not stated) | -9% | i
O=C(CN1CCN(c2ccc(F)cc2)CC1)N1CCOCC1 | -10% | x
CCOc1ccc(CNC(=O)c2ccc3c(c2)nc2n3CCOC2)cc1 | -14% | -12%
COc1ccc(-c2oc3ncn4nc(-c5ccccc5OC)nc4c3c2-c2ccc(OC)cc2)cc1 | -19% | i
CCOc1cccc2cc(-c3nc(-c4ccccc4C)no3)c(=O)oc12 | -2% | -13%
Cc1ccc(NC(=O)c2cc(-c3cc(F)ccc3OCC3CCCO3)n[nH]2)cc1NS(C)(=O)=O (configuration not stated) | -17% | i
Cc1ccc(NC(=O)C2CCCN2S(=O)(=O)c2cccc3nsnc23)c(C)c1 (configuration not stated) | -1% | -19%
COc1cc(/C=C(\C#N)c2ccccn2)ccc1OCc1ccc(Cl)cc1 | -13% | -12%
O=C(CCCN1C(=O)/C(=C/c2cccs2)SC1=S)Nc1ccccc1O | -10% | u
CCOCCCNC(=O)Cn1cc2c(n1)CCCC2 | -2% | -9%

Single entries from above.
Vaccinia mCherry result of COc1cc(/C=C(\C#N)c2ccccn2)ccc1OCc1ccc(Cl)cc1 → -12%
Vaccinia Venus result of Cc1ccc(NC(=O)C2CCCN2S(=O)(=O)c2cccc3nsnc23)c(C)c1 (configuration not stated) → -1%
Vaccinia Venus result of Cc1ccc(NC(=O)c2cc(-c3cc(F)ccc3OCC3CCCO3)n[nH]2)cc1NS(C)(=O)=O (configuration not stated) → -17%
Vaccinia mCherry result of CCOCCCNC(=O)Cn1cc2c(n1)CCCC2 → -9%
Vaccinia mCherry result of CCOc1cccc2cc(-c3nc(-c4ccccc4C)no3)c(=O)oc12 → -13%

Entries of single compounds, quoted from the list. Values in the order: Vaccinia Venus, Vaccinia mCherry
`CCOc1cccc2cc(-c3nc(-c4ccccc4C)no3)c(=O)oc12` in the list: -2%, -13%
`Cc1ccc(NC(=O)C2CCCN2S(=O)(=O)c2cccc3nsnc23)c(C)c1` (configuration not stated) in the list: -1%, -19%
`O=C(CCCN1C(=O)/C(=C/c2cccs2)SC1=S)Nc1ccccc1O` in the list: -10%, u
`COc1ccc(-c2oc3ncn4nc(-c5ccccc5OC)nc4c3c2-c2ccc(OC)cc2)cc1` in the list: -19%, i

From PubChem

Rows are unselected. About 0.86% of those tested had a hit in this group.
